High-throughput results (PubChem)
PK Bst = Pyruvate Kinase; partly purified Bacillus stearothermophilus pyruvate kinase, luminescence ATP production; ribose 5-phosphate activator present at AC10; AID 361, 2006; hit rate 1.2% among 51,000; Potency, µM; in the data active means potency below about 11 µM; inconclusive means mostly about 12 µM to 25 µM; inactive means weaker than that;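 the screen sought inhibitors and activators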;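 note: potency is the fitted concentration of half-maximal effect; scaled between full activation by ribose 5 phosphate and full inhibition by luteolin; about four in five hits inhibit and the cells do not say which; series up to 57 µM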
TsaE inh = qHTS Assay for Inhibitors of YjeE | tRNA threonylcarbamoyladenosine biosynthesis protein TsaE (Escherichia coli (strain … | Potency, µM | hit rate 0.05% among 71,000 | purified YjeE, fluorescence polarisation of a bound ADP probe; active = well fitted falling curve; inconclusive = weaker or top-dose-only fall, or a rising curve; inactive = flat or poorly fitted curve;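 note: top concentration of the series not given in the record; excess ADP was the control for the full effect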
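Purified YjeE (10 uM) with BODIPY Texas Red-labeled ADP probe (2 uM); compounds pin-transferred, 15 min at room temperature. Binding inhibition read as decreased fluorescence polarization; ADP titration as control.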
Active calls of the source: *; i = inactive; ? = inconclusive; . = no result given. Only part of the results is shown; count on the stated rates, not on these rows.

PK Bst	TsaE inh	structure
>57	i	Nc1ccc2c(c1)C(=O)N(CCCC(=O)O)C2=O
>57	i	CCOc1cc(C)c(C(C)C)cc1S(=O)(=O)N1CCOCC1
>57	i	COc1ccc2cc3cc(C(=O)Nc4ccc5c(c4)OCCO5)oc3nc2c1
.	i	O=C(O)C1C2C=CC(C2)C1C(=O)OC1CC2CCC1C2 (centres undefined)
>57	i	COC(=O)CSc1nc2ncc(Cl)cc2[nH]1
>57	i	CC(=O)NC(CCS(C)(=O)=O)C(=O)Nc1ccc(C)c(F)c1 (centres undefined)
>57	i	CCc1ccc(N2CSC3=C(C#N)C(c4cccs4)CC(=O)N3C2)cc1 (centres undefined)
.	i	CC1CC(C)CN(CCC(=O)Nc2cccc(Cl)c2)C1 (centres undefined)
>57	i	CCn1c(SCC(=O)Nc2cc3oc4ccccc4c3cc2OC)nnc1-c1cccs1
>57	i	Cc1ccc(OCC(=O)Nc2ccc(S(=O)(=O)Nc3onc(C)c3C)cc2)cc1
>57	i	Cc1ccc(-c2c3c(=O)n(C)c(=O)n(C)c3cn2N2CCOCC2)cc1
i	i	Cc1ccc(C(N)=O)cc1S(=O)(=O)Nc1cccc(C)c1C
>57	i	Cc1cccc(C)c1NC(=O)CNc1ccccc1
>57	i	CCN(C(=O)COC(=O)c1cc(C)n(-c2ccc(F)cc2)c1C)C1CCS(=O)(=O)C1 (centres undefined)
>57	i	CCOc1ccc(C(C)=O)cc1N1C(=O)C2C3C=CC(C3=C(C)C)C2C1=O (centres undefined)
>57	i	O=C1OCCC1Sc1nc(-c2ccccc2)cs1 (centres undefined)
.	i	O=C(CSc1nc2ccccc2[nH]1)Nc1ccc2c(c1)OCCO2
>57	?	O=c1ccsn1Cc1ccccc1
>57	i	Cc1ccc(N2CCN(C(=O)C3CCN(S(=O)(=O)c4cccc5nsnc45)CC3)CC2C)cc1 (centres undefined)
>57	i	COc1ccc(-c2cc(C(F)(F)F)n3nc(C(=O)N4CCOCC4)nc3n2)cc1

(cont.)
PK Bst	TsaE inh	structure
>57	i	CC1CCN(S(=O)(=O)N2CCC(C(=O)NCc3cccs3)CC2)CC1
>57	i	CCC(CO)NCc1ccc2c(c1)n(C)c(=O)n2C (centres undefined)
>57	i	C=CCOc1ccccc1C1C2=C(CC(C)(C)CC2=O)Nc2c1c(=O)n(C)c(=O)n2C (centres undefined)
>57	i	CCc1nnc(NC(=O)CSc2nc3cccnc3n2C2CCCCC2)s1
>57	i	CCN(CC)c1ccc2c(c1)oc(=O)c1c(Cl)cc(=O)oc12
>57	i	COCCCNC(=O)Cn1nnc(-c2ccccc2NC(=O)c2ccccc2F)n1
?	i	S=c1[nH]nc(-c2ccco2)n1-c1cccc2ccccc12
.	i	CCCCNc1ncnc2c1cnn2-c1ccc(C)cc1C
i	i	Brc1ccc(Nc2c3c(nc4ncnn24)CCC3)cc1
>57	i	O=C(Nc1ccncc1)c1cncc(Br)c1
.	i	NC(=O)C1CCN(c2nc(-c3ccccc3)nc3ccccc23)CC1
>57	i	O=C(NCc1ccccn1)C1CCCN(Cc2cnn(-c3ccccc3)c2-n2cccc2)C1 (centres undefined)
>57	i	O=C(O)CC1NC(=O)N(c2ccc(Cl)cc2)C1=O (centres undefined)
>57	i	O=C(O)C1CCCCC1C(=O)NCCc1ccc(Cl)cc1 (centres undefined)
.	i	COc1ccc(OC)c(-c2cc(C(=O)O)c3cc4ccccc4cc3n2)c1
>57	i	Cc1ccc(C)c(N2CCN(C(=O)CCCOc3cc(=O)n(C)c4ccccc34)CC2)c1
.	i	COc1ccc(Oc2ncc3nc(CCc4ccccc4)c(=O)n(C[C@H]4CCCO4)c3n2)cc1
>57	i	COC(=O)Cc1nc2ccccc2[nH]1
>57	i	CC(C)c1ccc(NC(=O)C2C3C=CC4(CN(CCCN5CCOCC5)C(=O)C24)O3)cc1 (centres undefined)
>57	i	O=C(Cn1c(=O)oc2ccccc21)N(Cc1ccccc1)C1CCS(=O)(=O)C1 (centres undefined)

The last 3 entries of the section before lead into the next:
PK Bst	TsaE inh	structure
>57	i	COC(=O)Cc1nc2ccccc2[nH]1
>57	i	CC(C)c1ccc(NC(=O)C2C3C=CC4(CN(CCCN5CCOCC5)C(=O)C24)O3)cc1 (centres undefined)
>57	i	O=C(Cn1c(=O)oc2ccccc21)N(Cc1ccccc1)C1CCS(=O)(=O)C1 (centres undefined)
>57	i	CCNc1nc2c(c(=O)n(Cc3ccccc3)c(=O)n2C)n1Cc1ccccc1
>57	i	Cc1occc1-c1nnc(SCC(=O)c2c(N)n(Cc3ccccc3)c(=O)n(C)c2=O)n1C
>57	i	Cc1ccc(OCC2Cn3c(nc4c3c(=O)n(C)c(=O)n4C)O2)cc1 (centres undefined)
>57	i	CCCCNC(=O)COC(=O)c1cc2c(C)nn(-c3ccccc3)c2s1
.	i	CC(=O)SCC[N+](C)(C)C
>57	i	Cc1[nH]c2ccccc2c(=O)c1CN(C)Cc1ccccc1
.	i	CCc1nc(SCC(=O)N2CCCc3ccccc32)c2c(=O)n(C)c(=O)n(C)c2n1
>57	i	Cc1nnc(Sc2nc3ccccc3o2)c2ccccc12
>57	i	COc1ccc(C2/C(=C(/O)c3ccccc3)C(=O)C(=O)N2CC(C)O)c(OC)c1 (centres undefined)
>57	i	Cc1cccn2c(=O)c3cc(C(=O)N4CCCc5ccccc54)n(C)c3nc12
>57	i	COc1cc(CN/C(C)=C(\C#N)C(N)=O)cc(OC)c1OC
.	i	O=C1NC(=O)c2cc([N+](=O)[O-])ccc21
.	i	Nc1nc2c(c(=O)[nH]1)N(C=O)[C@H](CNc1ccc(C(=O)N[C@@H](CCC(=O)O)C(=O)O)cc1)CN2
>57	i	Cc1ccc(-n2ncc3c(NCC4CCCO4)ncnc32)c(C)c1 (centres undefined)
i	i	O=C(CCn1cccc1)NCc1ccc(Cl)cc1
>26	.	CN(C)CCCN1C(=O)C(O)=C(C(=O)c2cc3ccccc3o2)C1c1ccccc1 (centres undefined)
>57	i	O=C(CCS(=O)(=O)c1ccc(Br)s1)NCc1cccs1
>57	i	CCCCN(CCCC)C(=O)CCS(=O)(=O)c1ccc2c(c1)n(C)c(=O)c(=O)n2C
>57	i	Cn1cc(C(=O)NC2CCCCC2)c(=O)c2cc(S(=O)(=O)N3CCCC3)ccc21
>57	i	CCOC(=O)CN(C(=O)CNC(=O)c1ccco1)C(C(=O)NC1CCCCC1)c1cccc(OC)c1 (centres undefined)

Full records, quoted from the list.
Entry for Cc1occc1-c1nnc(SCC(=O)c2c(N)n(Cc3ccccc3)c(=O)n(C)c2=O)n1C : PK Bst: >57; TsaE inh: i
Entry for Nc1nc2c(c(=O)[nH]1)N(C=O)[C@H](CNc1ccc(C(=O)N[C@@H](CCC(=O)O)C(=O)O)cc1)CN2 : PK Bst: .; TsaE inh: i
Entry for Cc1cccn2c(=O)c3cc(C(=O)N4CCCc5ccccc54)n(C)c3nc12 : PK Bst: >57; TsaE inh: i

(continued)
PK Bst	TsaE inh	structure
.	i	CCCCC(=O)Nc1ccc(C(=O)Nc2ccc3c(c2)OCO3)cc1
>57	i	CC1CC(C)(C)CC2(C1)NC(=O)N(CC(=O)NCC(c1ccco1)N1CCCCC1)C2=O (centres undefined)
i	.	Cc1nc(-c2cn[nH]c2)c2cc(C)oc2n1
.	i	COc1ccccc1NC(=O)C1=C(C)NC(=O)NC1c1ccc(C)cc1 (centres undefined)
.	i	Cc1ccc(CC2C(=O)N(c3ncccn3)C(=O)C2C)cc1 (centres undefined)
>57	i	Cc1cc(NC(=O)c2cc(Cl)ccc2Cl)no1
>57	i	Cc1ccc(-c2nnc(SC(C)C#N)n2N)cc1 (centres undefined)
>57	i	Cc1cc(C)n(-c2nc(C)nc3c2cnn3-c2ccccc2)n1
>57	i	COc1ccccc1-n1c(SCC(=O)Nc2nnc(C)s2)nc2c(c1=O)SCC2
>57	i	Fc1ccccc1Cn1nnc2c(NCc3ccccn3)ncnc21
.	i	COCCNc1ncncc1-c1ccccc1OC
.	i	C[N@+]1(CCC(=O)c2ccccc2)CC[C@H]2CC[C@H](C2)C1
>57	i	COc1cc2c(OC)cccc2cc1C(=O)O
>57	i	Cc1cc(=O)[nH]c(SCCOc2cccc(C(F)(F)F)c2)n1
>57	i	CN(C)/C=N/c1c(C#N)cnn1-c1nc2ccccc2s1
>57	i	Cc1cccc(NC(=O)Nc2cc(C)on2)c1
>57	i	O=C(c1ccc2c(c1)OCO2)N1CCN(c2ccc(F)cc2)CC1
>57	i	Cc1ccc(OCCN2CCN(C(=O)CCC(=O)Nc3nnc(C)s3)CC2)cc1
?	i	COc1ccc2nc(C)cc(Nc3ccc(N4CCOCC4)cc3)c2c1
>57	i	CCC(c1nnnn1Cc1ccco1)N1CCN(c2cc(Cl)ccc2C)CC1 (centres undefined)

Continuation:
PK Bst	TsaE inh	structure
>57	i	COC(=O)c1ccccc1NC(=O)c1ccccc1N(C)S(C)(=O)=O
>57	i	Cc1cccc2sc(NC(=O)C3CCCO3)nc12 (centres undefined)
.	i	CCOc1ccccc1CNC(=O)CCN1C(=O)COc2ccccc21
.	i	O=C(Cc1ccc(Cl)cc1)Nc1ccc(-c2nnc(-c3ccco3)o2)cc1
>57	i	O=C(OCn1cncn1)c1ccc(Cl)cc1Cl
>57	i	CCOc1ccc(OCC)c(N=c2oc3c(C)ncc(CO)c3cc2C(N)=O)c1
i	i	Cc1ncsc1C(=O)Nc1nc2c(s1)CCCC2
>57	i	Cc1cc(C)n(/N=C/c2ccccc2)c(=O)c1C#N
>57	i	CC1(C)CC(=O)C(C2(O)C(=O)N(Cc3ccccc3)c3ccccc32)CO1 (centres undefined)
>57	i	Cc1ccc2nc(NC(=O)CCNS(=O)(=O)c3ccc(Br)s3)sc2c1
>57	i	N#Cc1cc(C(=O)c2cc(Cl)ccc2O)cn(CC2CCCO2)c1=O (centres undefined)
>57	i	CCCCn1c(SCC(=O)Nc2nnc(CC)s2)nc2ccccc2c1=O
.	i	CC1(C)Cc2ccccc2-c2n[nH]c(=S)n21
>57	i	CN(C)S(=O)(=O)c1cccc(CSc2cccc[n+]2[O-])c1
>57	i	CCOC(=O)C1CCCN(C(=O)C2CCC(CNS(=O)(=O)c3ccc(NC(C)=O)cc3)CC2)C1 (centres undefined)
>57	i	COc1ccc(CN2CCOCC2)c(C)c1C
>26	.	CCCCNC(=O)c1cc2n(n1)C(C(F)(F)F)CC(c1ccccc1)N2 (centres undefined)
>57	i	CCC(=O)Nc1nc2ccccc2n1Cc1ccccc1
>57	i	CCOC(=O)c1c(-c2ccccc2)csc1NC(=O)CSc1nnnn1C
>57	i	Cc1ccc(Cl)cc1NC(=O)CSc1nnc(C)n1-c1ccccc1

Part of the list above, as labelled records.
Cc1ccc2nc(NC(=O)CCNS(=O)(=O)c3ccc(Br)s3)sc2c1
- PK Bst: >57
- TsaE inh: i

N#Cc1cc(C(=O)c2cc(Cl)ccc2O)cn(CC2CCCO2)c1=O (centres undefined)
- PK Bst: >57
- TsaE inh: i

Continuation:
PK Bst	TsaE inh	structure
>57	i	O=C(CCCc1cccs1)N1CCN(S(=O)(=O)c2ccccc2Br)CC1
>57	i	CCCS(=O)(=O)N1CCCC(C(=O)NCCCN2CCCC2=O)C1 (centres undefined)
>57	i	Nc1ccc(NC(=O)c2cccs2)c(Cl)c1
.	i	O=c1[nH]cnc2scc(-c3ccsc3)c12
.	i	COc1ccc(NC(=O)c2cc(-c3ccc(O)cc3)on2)cc1OC
>57	i	O=C(O)C1C2CCC(C2)C1C(=O)NCc1ccccn1 (centres undefined)
>26	.	COc1ccc(C2CC(c3ccccc3)Nc3nc(N)nn32)cc1 (centres undefined)
>57	i	O=C(Nc1nccs1)c1cc(N2CCOCC2)nc2ccccc12
.	i	C[C@@H]1C=C[C@](Cc2ccccc2)(C(=O)NCCCNc2ncc(C(F)(F)F)cc2Cl)N1C(=O)c1ccccc1
.	i	CSc1ccc(S(=O)(=O)Nc2ccc3c(c2)OCCO3)cc1
.	i	Cc1ccc(NC(=O)CC2Oc3ccccc3NC2=O)c(C)c1 (centres undefined)
>57	i	Cc1nc(NCCCn2ccnc2)c2ccccc2n1
.	i	Cc1ncoc1C(=O)Nc1ccc2c(c1)OCCO2
>57	i	CCOC(=O)C1CCN(C(=O)Cc2cccs2)CC1
>57	i	COc1ccc(S(=O)(=O)N(CC(=O)N2CCN(C)CC2)c2ccc(C)cc2)cc1OC
.	i	CCOc1ccc(-n2c(Cc3cc(=O)[nH]c(=O)[nH]3)nnc2SC(C)C(=O)OC)cc1 (centres undefined)
>57	i	COCCNC(=O)c1ccc(CS(=O)(=O)c2ccccc2)o1
.	i	COc1cccc(-c2cncnc2NCc2cccnc2)c1
>57	i	Cc1ccc(S(=O)(=O)C2(C(=O)NC3CCCC3)CC2)cc1
>57	i	COc1ccc(C(N)CCc2ccco2)cc1 (centres undefined)

Next part
PK Bst	TsaE inh	structure
>57	i	O=C(CCn1c(=O)oc2ccccc21)n1c(=O)oc2ccccc21
.	i	Cc1c(C(=O)OCC(C)(C)CN(C)C)oc2ccccc12
>57	i	O=C(CN1CCN(c2ccc(F)cc2)CC1)NCC1CCCO1 (centres undefined)
.	i	Cc1ccc(Cn2c(SCCN3CCCCC3)nc3c2c(=O)[nH]c(=O)n3C)cc1
.	i	CC12CC[C@@H]3c4ccc(OP(=O)(O)O)cc4CCC3C1CCC2=O (some centres undefined)
>57	i	Cc1cccc(-n2c(N)c(C(=O)N3CCN(C)CC3)sc2=S)c1
